Screens from PubChem.
VDR inh – inhibitors of human vitamin D receptor; P11473; VDR-SRC2-3 peptide fluorescence polarization, 2 h; Potency, µM, inactives show max response, negative = inhibition, hits mostly inhibitors; 400,000 compounds, 0.93% hits; AID 504847; active means well fitted inhibition curve with a large enough effect; inconclusive means small, poorly fitted or top-dose-only effect, or another doubt; inactive means no such curve, though single readings can be large or run the other way; further: series mostly up to about 120 µM
Target sequence (P11473 whole entry, looked up): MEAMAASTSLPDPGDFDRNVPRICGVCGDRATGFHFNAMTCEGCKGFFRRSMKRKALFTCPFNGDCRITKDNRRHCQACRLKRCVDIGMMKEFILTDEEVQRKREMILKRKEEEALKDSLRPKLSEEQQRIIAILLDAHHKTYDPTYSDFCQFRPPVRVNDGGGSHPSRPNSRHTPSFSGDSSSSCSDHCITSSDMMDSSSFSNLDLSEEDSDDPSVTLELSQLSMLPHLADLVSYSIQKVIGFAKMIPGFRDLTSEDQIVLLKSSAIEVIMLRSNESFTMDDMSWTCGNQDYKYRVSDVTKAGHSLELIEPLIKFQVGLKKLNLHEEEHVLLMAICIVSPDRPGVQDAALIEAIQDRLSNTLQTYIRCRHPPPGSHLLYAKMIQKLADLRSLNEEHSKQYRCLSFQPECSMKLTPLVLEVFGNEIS
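Fluorescence polarization assay measuring small-molecule disruption of VDR binding to the coregulator peptide SRC2-3. Compounds were pin-transferred (23 nl) into the reagent mix and incubated 2 h at room temperature before reading.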
* = called active by the depositor; ? = inconclusive; & = joins results of further samples; [ ] = another dose, or the depositor's remark. On the % scale 0 is the no-effect control and ±100 the full control effect; potency means the concentration at half of the fitted maximal effect. An excerpt, so the mix of outcomes need not match the whole.

| SMILES | VDR inh |
| --- | --- |
| O=C(CCCCCN1C(=O)c2ccccc2C1=O)Nc1ccc(S(=O)(=O)N2CCCCC2)cc1 | 18% |
| O=C(CSc1ccc(-c2ccco2)nn1)N1CCCCCC1 | 9% |
| O=C(O[C@@H]1OC2COC(=O)c3cc(O)c(O)c(O)c3-c3c(cc(O)c(O)c3O)C(=O)O[C@@H]([C@H]1O)[C@@H]2O)c1cc(O)c(O)c(O)c1 | -17% |
| COc1ccc(C(=O)Nc2ccc3[nH]c(-c4cccc(OC)c4)cc(=O)c3c2)cc1 | 0%&-11% |
| O=C(NCC1CCCCC1)c1ccc(F)cc1Cl | -10% |
| Cc1ccc(Cl)cc1N1CCN(S(=O)(=O)c2c(C)nc3scc(C)n3c2=O)CC1 | 15% |
| Cc1cccc(N2C(=O)N3[C@@H]4c5ccccc5OC[C@@H]4[C@@H](c4ccccc4)[C@]3(C)C2=O)c1 | 7% |
| O/N=C(\Cn1ccnc1)c1ccccc1 | -1% |
| O=C(NNC(=O)c1cc(-c2ccncc2)nc2ccccc12)c1ccccc1F | -5% |
| O=C(NCCOCc1ccccc1)C(c1ccccc1)c1ccccc1 | -7% |
| O=C(Cc1cccs1)Nc1nnc(SCC(=O)N2CCCCC2)s1 | -20% |
| O=C(CSc1nc2c(c(=O)[nH]1)CN(Cc1ccc(F)cc1)CC2)Nc1ccc(F)cc1 | -25% |

(listing goes on)
| SMILES | VDR inh |
| --- | --- |
| Nc1nc(CCl)nc(Nc2cccc3ccccc23)n1 | -8% |
| Cc1ccc(-n2nc3c(=O)n(CC(=O)Nc4ccccc4F)nc(C)c3c2C)c(C)c1 | 7% |
| COc1ccc(-c2noc(-c3ccccc3F)n2)cc1 | -2% |
| Cc1ccc(S(=O)(=O)N2CCN(C3CC(=O)N(c4ccc(F)cc4)C3=O)CC2)cc1C (configuration not stated) | 2% |
| Cc1cccc(OCc2nnc(SCc3cc(=O)n4cc(Br)ccc4n3)o2)c1 | 2% |
| CCN(CC)S(=O)(=O)c1cccc(NC(=O)c2ccc(C#N)cc2)c1 | -1% |
| Cc1cc(-c2nnc(CCC(=O)N3CCN(Cc4cccnc4)CC3)o2)c(C)o1 | 4% |
| Cc1cc(NC(=O)c2ccc3nc(-c4ccccc4)c(-c4ccccc4)nc3c2)no1 | 10% |
| COCCNC(=O)c1cccc2c1-c1ccccc1C2=O | -19% |
| Cc1nn(-c2ccc(C(=O)O)cc2)c2c1C(=O)CC(C)(C)C2 | 32%[activator] |
| CC(C)(C)c1ccc(OCC(=O)Nc2ccc(C(=O)Nc3ccccc3C(=O)O)cc2)cc1 | ? |
| CCC(Sc1nnnn1-c1ccccc1)C(=O)NC(C)c1ccccc1 (configuration not stated) | -8% |

Next structures
| SMILES | VDR inh |
| --- | --- |
| Cc1ccccc1C(=O)Nc1ccnn1C1CCN(CCCc2ccccc2)CC1 | 13% |
| CCC(C)[C@H](NS(=O)(=O)c1ccc(C)cc1)C(=O)N1CCC(C(=O)N[C@H](C(=O)O)c2ccccc2)CC1 (some centres not stated) | -1% |
| Cc1nc(N2CCOCC2)nc(N2CCCC2)c1[N+](=O)[O-] | 5% |
| NNC(=O)c1cccn(Cc2ccc(Cl)cc2Cl)c1=O | 21% |
| Cc1noc(C)c1C(=O)N1CCN(Cc2ccccc2)CC1 | 18% |
| CCOc1ccc(N2C(=O)CC(N(CCc3ccc(OC)c(OC)c3)C(=S)Nc3ccccc3)C2=O)cc1 (configuration not stated) | 3% |
| O=C(Nc1cccc(Cl)c1)c1cc(F)cc2c1OCOC2 | 3% |
| CCN(CC)CCn1c2c(c(SCC(=O)Nc3cc(C)on3)nc1=O)CCCC2 | -4% |
| O=C(NCCCc1ccccc1)c1cccc(NC(=O)c2ccccc2)c1 | -17% |
| Cn1ncc(Br)c1C(=O)OCC(=O)Nc1nc(-c2ccccc2)cs1 | 0% |
| O=C(CN(Cc1ccco1)C(=O)c1cc(=O)[nH]c2ccccc12)Nc1ccccc1Br | -8% |
| NC(=O)c1ccc(-c2noc(-c3ccccc3F)n2)cc1 | -1% |

(list continues)
| SMILES | VDR inh |
| --- | --- |
| CCN(CC)S(=O)(=O)c1ccc2[nH]cc(C(=O)NCCN3CCCCCC3)c(=O)c2c1 | -11% |
| COc1cccc(CNC(=O)CCc2c(C)c3cc4c(C)c(C)oc4cc3oc2=O)c1 | 9% |
| C/C(Cn1nnc2ccccc21)=N\OC(=O)c1cc(F)c(F)cc1Cl | 3% |
| CCN(C(=O)Cc1c(C(=O)O)n(C)c2ccccc12)c1cccc(C)c1 | 1% |
| O=C(Nc1ccc(Oc2ncnc3cc(Cl)ccc23)nc1)c1ccc(F)cc1 | -13% |
| COc1ccc(-c2cc(C(=O)Nc3nc4c(C)cccc4s3)c3ccccc3n2)cc1OC | 3% |
| Cc1ccc2c(Cl)c(C(=O)Nc3cc(C)on3)sc2c1 | 8% |
| O=C(NC1CCC1)C1CCC(=O)N(Cc2ccccc2F)C1 (configuration not stated) | 0% |
| Cc1cc(C(=O)COC(=O)Cn2cnc3c2c(=O)n(C)c(=O)n3C)c(C)n1C | -13% |
| CC(=O)Nc1ccc2sccc2c1 | -2% |
| O=c1[nH]nc(SCc2ccccc2Cl)n1-c1ccc2c(c1)OCCO2 | 2% |
| CCOC(=O)C(C)Sc1ncnc2c1nnn2-c1ccc(F)cc1 (configuration not stated) | -17% |

Continuation.
| SMILES | VDR inh |
| --- | --- |
| Cc1ccc(S(=O)(=O)c2nc(S(=O)(=O)c3ccccc3)sc2N2CCN(CCO)CC2)cc1 | -1% |
| CC1CCc2[nH]c3ccc(C(=O)Nc4ccc(C(=O)N(C)C)cc4)cc3c2C1 (configuration not stated) | 0% |
| COC(=O)c1c(N2C(=O)[C@H]3[C@@H](C2=O)[C@]2(C(=O)Nc4c(C)cccc42)N2CCC[C@@H]32)sc(C)c1C | 18% |
| S=C(NCCc1ccccc1)N1CCN(Cc2ccccc2)CC1 | -1% |
| COc1ccc(Cn2c(C(=O)O)c(CNCCc3ccco3)c3ccc(OC)cc32)cc1 | 12% |
| CCC(Sc1nnnn1-c1ccccc1)C(=O)Nc1nc2ccccc2s1 (configuration not stated) | 22% |
| O=C(c1ccncc1)N1CCC2(CC1)CN(c1ccc(-c3ccccc3)cc1)C2 | -18% |
| CCOC(=O)C1=C(O)C(=O)N(c2ccc(S(N)(=O)=O)cc2)C1c1cccc([N+](=O)[O-])c1 (configuration not stated) | -8% |
| O=C(O)CP(=O)(O)O | -1%&-3%&-7% |
| O=C(Cc1ccc(Cl)cc1)Nc1ccccc1CO | 5% |
| COc1ccc(OC)c(S(=O)(=O)N2CCCC(C(=O)N3CCCCCC3)C2)c1 (configuration not stated) | 9% |
| CC(C#N)N1CCN(S(=O)(=O)c2ccc3c(c2)CCC3)CC1 (configuration not stated) | 3% |

(further entries)
| SMILES | VDR inh |
| --- | --- |
| O=C(CN1CCC(n2nnc3cc(F)ccc32)CC1)NCCc1ccccc1 | 3% |
| O=C(CSc1nc(O)cc(=O)[nH]1)N1c2ccccc2Sc2ccccc21 | 6% |
| O=C(CCCn1c(=S)[nH]c2ccccc2c1=O)N1CCCCC1 | 6% |
| CCCSc1nc2cc(S(=O)(=O)N3CCOCC3)ccc2n1CC | -8% |
| Cc1cccc(NC(=O)CCC(=O)Nc2nnc(C3CCCCC3)s2)c1 | -12% |
| CCC1CN(C(=O)Nc2cccc(OC)c2)c2ccccc2O1 (configuration not stated) | -4% |
| CCOC(=O)c1ccc(N2Cc3ccccc3C2)cc1O | 1% |
| Cc1ccc(-c2ncc(Cl)cc2-c2ccc(S(C)(=O)=O)cc2)cn1 | 3% |
| COc1ccccc1OC(C)C(=O)N1CCC(c2nc3ccccc3s2)CC1 (configuration not stated) | -9% |
| COc1cc(OC)nc(Oc2ccccc2C(=O)Oc2ccc(F)cc2Cl)n1 | -4% |
| COc1ccc(N2C(=O)c3ccccc3NC2c2ccccc2O)cc1 (configuration not stated) | -2% |
| O=[N+]([O-])c1ccc2c(c1)OCCOCCOCCOCCOCCOCCO2 | 8% |

(further entries)
| SMILES | VDR inh |
| --- | --- |
| O=C(CN1C(=O)C2C3CCC(C3)C2C1=O)Oc1ccc2ccccc2c1 (configuration not stated) | -19% |
| Cc1nn(-c2ccccc2)c2nc(C3CC3)cc(C(=O)Nc3ccccc3F)c12 | 1% |
| CCOc1ccc(NC(=O)c2ccc3c(c2)CCN3S(=O)(=O)c2ccc(Cl)cc2)cc1 | 12% |
| CCOC(=O)CN(C(=O)COc1ccc2c(C)cc(=O)oc2c1)c1ccc(OCC)cc1 | -1% |
| CCCSC1=C(C#N)C(c2ccccc2C)CC(=O)N1 (configuration not stated) | 0% |
| OCCC1CN(C2CCSCC2)CCN1C1CCCC1 (configuration not stated) | 10% |
| Cc1ccc(C(=O)N2c3ccc(C)cc3C(C)(c3ccccc3)CC2(C)C)cc1 (configuration not stated) | ? |
| O=C(CCSCc1ccccc1Cl)NCCc1ccccc1 | -5% |
| CC(C)c1ccc(NC(=O)COC(=O)CSc2nnc(N)s2)cc1 | -2% |
| COc1cc(C)c(NC(=O)c2cc(C3CC3)nc3c2cnn3C(C)C)cc1OC | -1% |
| CN(Cc1cccnc1)C(=O)c1ccc2nc(Cc3ccccc3F)oc2c1 | -5% |
| Cc1nc2ccccn2c1-c1ccnc(SCc2ccc(Cl)cc2)n1 | 15% |

More structures follow:
| SMILES | VDR inh |
| --- | --- |
| COC(=O)c1ccc(NC(=S)NC2c3ccccc3CC2O)cc1 (configuration not stated) | -16% |
| Cc1ccc(NC(=O)CNc2ccc(OC(C)C)cc2)cc1 | -2% |
| O=C(Nc1cnn(Cc2ccc(Cl)cc2Cl)c1)c1noc2c1CCc1ccccc1-2 | -8% |
| Cc1ccccc1CN1CCCNC1=O | 8% |
| CC12CCC(C(=O)NNc3ccccc3)(OC1=O)C2(C)C (configuration not stated) | -20% |
| CC(C)OC(=O)CSc1ncnc2c1cnn2Cc1ccccc1 | 19% |
| Cc1cccc(-c2noc(CCCC(=O)N3CCOCC3)n2)c1 | -16% |
| COc1ccc(NC(=O)c2ccccc2C)c(OC)c1 | 13% |
| COc1ccc(NC(=O)CSc2nc(SC)ns2)cc1 | 4% |
| CCC(=O)N1CCN=C1SCc1cccc(C(F)(F)F)c1 | -3% |
| c1ccc2[nH]c(NN=C3CCCCCC3)nc2c1 | 9% |
| CCC(C)NC(=O)CSc1nnc(-c2c[nH]c3ccccc23)o1 (configuration not stated) | -4% |

Other entries.
| SMILES | VDR inh |
| --- | --- |
| Cn1cc(CN2CCN(c3ncccn3)CC2)c(-c2cccc(Cl)c2)n1 | 4% |
| Cc1cccc(N2CCN(C(=O)/C=C/c3cccs3)CC2)c1C | -16% |
| COc1ccc(OC)c(CCNC(=O)CCCc2nnc3n(C)c(=O)c4sccc4n23)c1 | -13%&-9% |
| COc1ccc(Cl)cc1NC(=O)Cn1nnc2sc3c(c2c1=O)CCC(C(C)(C)C)C3 (configuration not stated) | 4% |
| COc1ccc(N2CC(NC(=O)Cc3cccs3)CC2=O)cc1OC (configuration not stated) | 1% |
| Cc1ccc(S(=O)(=O)CCC(=O)Nc2cccc(C)c2)cc1 | -13% |
| O=S(=O)(c1ccc(F)cc1)N1CC=C(c2ccccc2)CC1 | -30% |
| CN(C)c1cccc(C(=O)NNC(=S)NC2CC3CCC2C3)c1 (configuration not stated) | -14% |
| Cc1nc(NS(=O)(=O)c2ccccc2C)c2c3c(sc2n1)CCC3 | 25% |
| COC(=O)COc1ccc(S(=O)(=O)N2CCN(c3ccccc3)CC2)cc1 | 36%[activator] |
| CCCN1/C(=C(/C#N)C2=NS(=O)(=O)c3ccccc32)N(C)c2ccccc21 | -8% |
| S=c1[nH]ccc2ccccc12 | -22% |

(cont.)
| SMILES | VDR inh |
| --- | --- |
| COCc1cc(C)nc(OCC(=O)N/N=C/c2ccc(O)cc2O)c1C#N | 14% |
| Cc1ccccc1C(=O)NNC(=O)C1CCN(c2ncccn2)CC1 | -7% |
| Cc1ccc(S(=O)(=O)NCCc2csc(-c3ccc(Cl)cc3)n2)cc1 | 3% |
| Cc1noc(C)c1-c1cc(Nc2ccc(F)cc2)ncn1 | 1% |
| COc1ccc(Nc2ncnc3c2cnn3C)c(OC)c1 | 11% |
| CCOP(=O)(OCC)C(NC(=O)c1cccs1)C(F)(F)F (configuration not stated) | 22% |
| O=C1Nc2ccc(F)cc2C12Nc1ccccc1-c1nnc(SCc3ccccc3)nc1O2 (configuration not stated) | ? |
| Cc1oc2c(C)c3oc(=O)c4c(c3cc2c1C)CCC4 | 1% |
| Cc1ccc(C)c(N2CCN(S(=O)(=O)c3c(C(=O)N4CCCCC4)c(C)n(C)c3C)CC2)c1 | -11% |
| COc1ccc(OC)c(C2NC(=O)N(C)C(C)=C2C(=O)OCc2ccccc2)c1 (configuration not stated) | 0% |
| O=C(O)c1cc(N/N=C/c2ccc(OCc3ccccc3)cc2)ccc1Cl | -12% |
| CCOC(=O)N1CCc2c(sc(NCc3cccs3)c2C(=O)Nc2cc(OC)ccc2OC)C1 | -27% |
| CCN1CCCC1CNC(=O)c1cc([N+](=O)[O-])c(N(C)C)cc1OC (configuration not stated) | -12% |
| O=C1c2ccccc2S(=O)(=O)c2cc(C(=O)N3CCN(c4c(Cl)cncc4Cl)CC3)ccc21 | 10% |
| O=C(CCN1C(=O)CSc2ccccc21)Nc1ccc(OC(F)(F)F)cc1 | -6% |
